LANA-H2A inh: blocks KSHV LANA binding to histone H2A/H2B. inhibition, % (concentration not given with the values). Q9QR71. AID 2629. hit rate 0.6% among 320,000. cell-free LANA-H2A/H2B peptide, fluorescence polarization; in the data active = inhibition mostly above about 10%, no sharp cut-off; inactive = mostly below about 6.7%;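 also: stock transfer was 7.5 nL into about 10 µL; 0% = median of vehicle wells and 100% = median of positive control wells; one replicate is shown; the record names a cut of 25% in any replicate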
T cruzi repl: blocks replication of Trypanosoma cruzi; T. cruzi beta-gal in NIH3T3, luminescence, 90 h; inhibition, % (test concentration not listed); hit rate 1.4% among 300,000;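 active = mean inhibition across valid replicates above about 55%, limit read from the data; inconclusive = mean below that limit but half or more replicates reach it; inactive = mean below it, under half of replicates reach it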;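 also: signal also drops with host cell toxicity which is not excluded here; 0% = plate median of DMSO wells and 100% = zero luminescence signal; higher percent means less beta-gal luminescence so fewer parasites; stock transfer was 50 nL into about 50 µL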
Ecoli rRNA inh: inhibits bacterial ribosomal RNA function over humanized ribosomes; AID 720706; hit rate 1.6% among 350,000; E. coli WT GFP vs humanized-ribosome RFP mutants, fluorescence, 24 h; hits give low values; DMSO median 0, no signal -100; GFP signal change (wild-type ribosome), % (no concentration beside the values);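 active = significant combined selectivity score with lowered wild-type GFP, culture density cut under 30%, mutant RFP and density less affected; inactive = any of these conditions unmet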; also: one replicate is shown; some compounds called inactive have numbers as strong as hits
ALR H2O2 inh: blocks human ALR sulfhydryl oxidase activity; P55789; purified ALR, DTT oxidation, H2O2 HRP-luminol luminescence; inhibition, % (concentration not given with the values); hit rate 3.8% among 290,000;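 active = mean and each replicate at 75% or more; inconclusive = only one of the two met; inactive = neither met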;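 also: stock transfer was 7.5 nL into about 7.5 µL; 0% = neutral wells and 100% = wells with inactivated enzyme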
Target sequence (P55789 whole entry, looked up): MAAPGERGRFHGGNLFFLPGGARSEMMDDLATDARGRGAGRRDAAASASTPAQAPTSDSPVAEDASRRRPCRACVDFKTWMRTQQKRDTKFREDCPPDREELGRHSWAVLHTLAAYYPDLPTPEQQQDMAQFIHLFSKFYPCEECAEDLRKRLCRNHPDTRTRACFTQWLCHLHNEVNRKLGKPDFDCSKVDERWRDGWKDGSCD
Beta apoptosis: beta cell apoptosis inhibition; INS-1E cytokine-induced death, ATP luminescence, 48 h; percent of positive-control rescue, neutral wells zero; protection from apoptosis, % (no concentration beside the values); hit rate 0.8% among 300,000; AID 435005;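 active = all replicates at 75% or more, or half of them and the mean; inconclusive = half reach 75% but not the mean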;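 also: 0% = cytokine-treated negative control wells and 100% = positive control rescue; higher means more ATP so stronger rescue from cytokine killing; wells of about 40 µL received 100 nL stock; the first replicate is given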
B2AR ag: activates human beta-2 adrenergic receptor causing internalization | response, % (test concentration not listed) | AID 504454 | P07550 | hit rate 0.43% among 340,000 | Am2.2-beta2AR cells, FAP receptor internalization, flow cytometry; reference of the scale not given here;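 active = response above a set limit, near 3 SD of response in nonfluorescent compounds, cut at about 42% in these data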;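 also: stock transfer was 100 nL into about 11 µL; a reference agonist was the positive control; negative values mostly stem from fluorescent compounds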
Target sequence (P07550 whole entry, looked up): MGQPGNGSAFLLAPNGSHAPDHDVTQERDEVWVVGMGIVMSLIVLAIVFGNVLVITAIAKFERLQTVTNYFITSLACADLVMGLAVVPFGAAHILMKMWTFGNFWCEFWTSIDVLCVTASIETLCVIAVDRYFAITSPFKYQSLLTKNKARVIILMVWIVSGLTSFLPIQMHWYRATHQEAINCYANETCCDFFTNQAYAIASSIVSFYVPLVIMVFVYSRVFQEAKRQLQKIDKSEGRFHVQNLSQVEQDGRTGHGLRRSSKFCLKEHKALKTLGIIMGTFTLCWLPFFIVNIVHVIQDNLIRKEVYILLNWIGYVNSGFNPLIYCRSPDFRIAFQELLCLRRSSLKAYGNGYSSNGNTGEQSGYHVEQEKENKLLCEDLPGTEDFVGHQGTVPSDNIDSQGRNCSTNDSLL
Calb FLC: C. albicans growth modulation with fluconazole. C. albicans CaCi-2 (fluconazole-resistant clinical isolate) + fluconazole, Alamar Blue growth, 48 h. growth inhibition, % (test concentration not listed). hit rate 0.57% among 300,000. AID 1979;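 active = most replicates above 75%; inconclusive = exactly half above 75%; inactive = most below 75%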;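 also: all wells also contain fluconazole at 8 µg/ml as a sub-toxic cotreatment; 0% = median of DMSO wells and 100% = median of geldanamycin control wells; wells of about 8 µL received 7.5 nL stock; the first replicate is given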
Bfl-1 A1 inh: inhibitors of the anti-apoptotic protein A1, read as caspase activation. MEF A1-2A-BIM cells, Caspase-Glo 3/7 luminescence, 3 h; percent of clofoctol response, vehicle zero. caspase activation, % (concentration not given with the values). hit rate 0.066% among 330,000;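 active = over half of replicate activation scores above 10%, or exactly half above 10 with the replicate mean above 10; inconclusive = replicate mean below 10 yet half the replicates above 10; inactive = over half of replicates below 10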;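 also: wells of about 30 µL received 50 nL stock; many hits fall short of the cut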
Ecoli rRNA inh OD600: second read-out of Ecoli rRNA inh, no call of its own (marks repeat the call); OD600 change, %; measured here: OD600 growth;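 optical density of the mix in the first replicate; 0 = DMSO median and -100 = no signal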
Ecoli rRNA inh RFP: further read-out of Ecoli rRNA inh, marked with its call; RFP signal change, %; measured here: RFP humanized mutant strains;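 first replicate; 0 = DMSO median and -100 = no signal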
Numbers without * were called inactive; ? = inconclusive; . = not tested or not shown; & = joins results of further samples. Some of the compounds tested. The share of hits here may be higher or lower than overall.

Compound	Ecoli rRNA inh RFP	ALR H2O2 inh	B2AR ag	T cruzi repl	Ecoli rRNA inh	Beta apoptosis	Ecoli rRNA inh OD600	LANA-H2A inh	Calb FLC	Bfl-1 A1 inh
CCS(=O)(=O)N1CCC(NC(=O)C(Cc2cc(OC)ccc2OC)NC(C)=O)CC1 (stereo not drawn)	-0.5	-22	-5	-5	10	-5	12	-4.8	7	0.5
CCCSc1n[nH]c(NC(C)=O)n1	-0.4	-8	-1	-3	5	-5	8	-2.2	3	0.7
CC(C)NC(=O)NC(=O)COC(=O)C1CCCN1C(=O)c1cccs1 (stereo not drawn)	.	-3	2	-4	.	-7	.	-1.9	-5	1.7
CS(=O)(=O)c1ccc(NC(=O)C2CCCN(C(=O)c3ccc(Cl)cc3)C2)cc1 (stereo not drawn)	-2.5	4	10	.	-2	-4	-4	-9.3	.	1.3
CCOCC(=O)N1CCN(Cc2ccc3c(c2)OCO3)CC1	-1.4	-5	6	8	9	-4	13	5.0	-17	-0.6
CC(NC(=O)/C=C/c1ccco1)c1nc2ccccc2n1Cc1ccccc1F (stereo not drawn)	.	17	5	18	.	-12	.	2.6	3	1.1
COC(=O)CCCN1C(=O)c2cccc3cccc(c23)C1=O	-3.5	-2	9	4	-10	-1	-14	3.0	-8	0.9
CC(=O)N/C(=C\c1ccc2c(c1)OCO2)C(=O)NC(C(=O)O)c1ccccc1 (stereo not drawn)	-5.1	-7	16	-15	13	-4	5	-14	-1	1.4
COc1ccc(C2C=C(c3ccccc3)Nc3ncnn32)cc1 (stereo not drawn)	.	-1	-4	4	.	3	.	2.4	-4	-0.1
COc1cc(/C=N/NC(=O)NC23CC4CC(CC(C4)C2)C3)ccc1OCC(N)=O	2.9	-8	10	-14	-14	-8	-33	-2.8	-4	0.3
O=C(CSCc1ccc(Cl)cc1Cl)Nc1c[nH]c(=O)[nH]c1=O	10	0	-8	0	9	0	11	-1.4	24	0.1
COc1ccc(-c2nn(-c3ccccc3)cc2C=O)cc1[N+](=O)[O-]	0.8	-16	-2	4	7	6	8	-1.6	13	1.2
CCOc1ccc(Cl)cc1S(=O)(=O)N1CCC(C(=O)NC2CC2)CC1	-1.8	-1	5	-2	5	-1	5	-0.6	-7	0.2
Cc1ccc(-c2cc([C@H]3[C@@H]4C=CCC[C@@]4(C)C(=O)N3Cc3ccccc3)ccc2F)cc1	1.1	.	9	14	6	-3	3	-5.3	-13	-0.5
Cn1c(SCC(=O)NC(C)(C)C)nc(O)cc1=O	-3.5	1	-3	-4	-5	-3	1	-4.2	-1	0.8
Cc1nc2sccn2c(=O)c1S(=O)(=O)Nc1ccc(N2CCOCC2)c(Cl)c1	2.0	-2	3	-19	1	9	-7	-6.7	-4	.
Oc1ccc(Oc2ncc(Cl)cc2Cl)cc1	.	99*	-18	-5	.	.	.	1.8	-3	-0.5
Cc1cccc(C)c1N(CC(=O)N1CCN(C)CC1)S(C)(=O)=O	.	-7	-4	2	.	1	.	4.3	3	0.5
CC/C(=N/NC(=O)c1ccccc1O)c1c(C)[nH]n(-c2ccccc2)c1=O	-9.5	74	10	-11	-42	36	-71	-2.4	101*	-0.4
O=S(=O)(Nc1ccc(Br)cn1)c1cccs1	-5.8	-22	4	-5	-21	-4	-25	4.7	9	-0.3
O=C(Nc1ccccc1C(=O)Nc1ccncc1)c1ccc([N+](=O)[O-])cc1	-4.3	.	-2	31	-1	14	1	2.8	5	-5.1
Oc1ccc(-c2nc3ccccc3s2)cc1	-8.8	90*	-2	-12	-28	-1	-27	-2.1	1	-7.7
COc1nc(Nc2cccc([N+](=O)[O-])c2)nc(OC)n1	-5.0	-7	11	-21	5	4	4	3.0	3	-0.6
C=CCCc1ccc(C#N)c(SCc2c(C(=O)OCC)c3cc(OC(C)=O)c(Br)cc3n2C)n1	.	.	-10	28	.	110*	.	.	-21	0.0
CC1(C)OC(=O)N2CCc3ccccc3C21C (stereo not drawn)	.	-8	6	-5	.	-4	.	0.0	8	-0.4
CCOc1ccc(NC(=O)c2ccc(S(=O)(=O)N(C)C)cc2)cc1	-1.2	-7	1	.	-10	-2	0	4.8	.	0.3
O=C(Nc1ncn[nH]1)c1c(Cl)ccc(Cl)c1Cl	.	1	-2	-5	.	-6	.	1.1	-5	-0.1
Cc1cccc(NC(=S)Nc2cccc(C(F)(F)F)c2)n1	.	2	-6	-8	.	-1	.	1.9	0	-0.1
COc1cc2[nH]c(=O)n(Cc3ccc(C(=O)NCC4CCCO4)cc3)c(=O)c2cc1OC (stereo not drawn)	.	-9	8	-7	.	-2	.	1.4	-2	0.0
Cc1ccccc1NC(=S)NCc1ccco1	.	5	-3	1	.	-12	.	1.6	-2	1.1
O=C(Nc1ccccc1)N(CCCN1CCOCC1)Cc1cccs1	-0.4	.	6	-3	9	-8	14	-1.2	0	0.8
CC1C=CCC2C(=O)N(c3ccc(Cl)cc3O)C(=O)C12 (stereo not drawn)	.	-2	-6	-15	.	-2	.	2.2	-4	1.2
C=CCn1c(Cc2csc(N)n2)nnc1SCC(=O)Nc1ccccc1C(F)(F)F	.	3	1	3	.	-1	.	0.1	4	-1.0
COc1ccc(CCNC(=O)CSCC(=O)Nc2ccccc2)cc1OC	-1.2	-17	-1	0	-3	.	-2	2.0	5	1.2
OCCC1CN(Cc2cnc(-c3cccc4ccccc34)nc2)CCN1C1CCCCC1 (stereo not drawn)	3.0	.	-1	1	6	5	-5	-1.1	3	-0.6
Cc1ccccc1-n1nnnc1SCc1ncc(-c2ccccc2)o1	.	5	1	21	.	-9	.	1.7	3	0.9
Cc1nc(NC(=O)CN2CCCCC2)sc1C(=O)N(C)C	-3.6	9	10	-10	5	2	8	-4.3	0	0.8
Cn1c(=O)c2c(nc(CN3CCc4ccccc4C3)n2Cc2ccccc2F)n(C)c1=O	.	-10	7	11	.	0	.	4.5	-7	0.2
CCCOc1ccc(Cn2c(=O)oc3ccc(C)cc32)cc1OC	.	-20	-3	4	.	-6	.	-1.0	34	-0.8
COc1ccc(Cl)cc1NC(=O)CN(C)CC(=O)NCc1cccs1	-3.4	-2	0	.	-5	-5	-18	-1.6	.	0.5
C/C(=N\NC(N)=O)c1ccccc1Cl	6.4	-4	7	-7	22	.	-3	1.4	1	0.4
O=C(c1ccccc1)c1ccc(N2CCCC2)cc1	.	.	-17	1	.	-3	.	-0.4	-14	0.8
CC(C)=NNc1nc2c(c(=O)[nH]c(=O)n2C)n1CCCc1ccccc1	-0.8	0	-6	5	6	-7	1	2.9	-8	0.9
CN1C(=O)c2cccc3c(Cl)ccc(c23)C1=O	.	-7	6	-1	.	-6	.	1.0	2	-0.5
O=C(Nc1ccccc1Cl)c1ccc2c(=O)n3c(nc2c1)CCC3	-2.3	32	-3	.	-6	0	-5	-6.0	.	-6.0
CC(C)NC(=O)Nc1cccc2c1O[C@H](CN(C)C(=O)Nc1ccc(C(F)(F)F)cc1)[C@@H](C)CN([C@H](C)CO)C2=O	-0.7&-0.2	.	0	.	-11&3	6	-11&3	-1.3	.	0.4
Cc1ccccc1-c1nnc(SCC#N)o1	0.7	.	-9	-1	14	-8	8	0.9	3	-0.2
COC(=O)c1ccccc1NC(=O)c1cc2nc(C3CC3)cc(C(F)(F)F)n2n1	.	7	-3	-3	.	0	.	3.1	4	0.4
COc1cccc(C(=O)COC(=O)c2ccc(NC(=O)c3ccccc3)cc2)c1	6.4	-3	-2	-11	4	-8	-2	2.4	-1	0.1
CN1CCN(C(c2cccc(C(F)(F)F)c2)c2nnnn2C(C)(C)C)CC1 (stereo not drawn)	.	-3	2	-26	.	-6	.	-2.2	0	1.5
O=C(Nc1cccc2ncccc12)c1ccccc1Cl	-6.0	-6	-2	-3	2	.	1	-5.3	-7	0.9
N#Cc1cnn(-c2ccccc2)c1NC(=O)c1ccccc1F	-2.8	.	-11	.	-3	-5	-14	-3.8	.	0.2
Cc1noc(C)c1-c1nc(CSc2ccc(Cl)cc2)no1	.	-6	-9	3	.	-2	.	-1.2	4	0.0
CCCCCn1c(=O)[nH]c2cc(C(=O)N3CCN(CC)CC3)ccc2c1=O	.	0	-3	-18	.	-6	.	1.6	18	0.8
COc1ccc(C(=O)/C=C/Nc2cc(C)on2)cc1	.	-3	-19	-8	.	-1	.	2.3	-8	?
Cc1cc(Oc2ccccc2)nc(N)n1	.	-16	-15	5	.	-7	.	0.4	-31	0.9

Next records follow:
Compound	Ecoli rRNA inh RFP	ALR H2O2 inh	B2AR ag	T cruzi repl	Ecoli rRNA inh	Beta apoptosis	Ecoli rRNA inh OD600	LANA-H2A inh	Calb FLC	Bfl-1 A1 inh
CCN(C(=O)CN1C(=O)COc2ccc(S(=O)(=O)N3CCCCCC3)cc21)c1cccc(C)c1	1.9	-6	-4	-1	18	3	12	-2.3	10	-0.1
N#CC(c1nc2ccccc2nc1N1CCCC1)S(=O)(=O)c1ccccc1 (stereo not drawn)	.	0	-32	-7	.	5	.	17*	?	-0.6
Cc1ccc(-c2ccc(/C=N/NC(=S)Nc3ccccc3)o2)cc1[N+](=O)[O-]	.	2	-3	42	.	23	.	0.0	7	-0.3
COc1cc(C(=O)NCCCn2ccnc2)cc(OC)c1OC	0.2	-7	-7	-22	-1	0	4	11*	-3	0.8
CCN(CC(=O)NC1CCS(=O)(=O)C1)S(=O)(=O)c1cc(Br)ccc1Br (stereo not drawn)	-0.2	4	1	-5	-1	-1	4	3.1	2	-0.6
COc1cccc2cc(CC(=O)c3ccc(C)c(C)c3)c(=O)oc12	1.2	2	-6	6	-1	-5	3	-0.2	-1	0.9
O=C(c1ccccc1F)N1CCN(c2ncccn2)CC1	.	-5	-2	-6	.	1	.	1.0	.	-0.2
COC(=O)C(C)NC(=O)C12CC3CC(C1)CC(c1ccc(C)cc1)(C3)C2 (stereo not drawn)	2.1	.	8	-7	-10	-11	-9	-1.8	-3	0.7
Fc1ccc2[nH]c3c(N4CCc5ccccc5C4)ncnc3c2c1	8.3	-3	.	19	0	127*	11	0.8	-18	-0.1
COc1cc(NC(=O)CN2C(=O)C(=O)N(C3CCCC3)C2=O)cc(OC)c1	0.7	-3	10	.	2	-3	4	-3.1	.	1.0
Cn1c(Cn2c(=O)sc3ccccc32)nnc1SCC(=O)Nc1ccccc1F	-1.1	-15	3	6	11	0	10	-0.4	-9	-0.2
Cc1ccccc1NC(=O)COc1ccccc1C	-3.3	-8	5	-5	-24	.	-34	-1.0	-3	-0.8
C=CCN1C(=O)S/C(=C\c2ccc(N3CCOCC3)cc2C)C1=O	.	21	12	20	.	-6	.	1.5	18	0.3
CCN1CCN(CCNC(=O)c2ccc3c(c2)N(Cc2ccc(F)cc2)C(=O)/C(=C/c2ccccc2)S3)CC1	7.4	-14	-589	54	-38	16	-41	0.7	2	1.5
CCOC(=O)c1cc(C#N)c(Oc2ccccc2)nc1-c1ccccc1	.	-32	1	16	.	21	.	-4.6	0	0.3
Cc1ccc(-n2cc(CN(C)Cc3nccn3C)c(-c3cccc(C)c3)n2)cc1	-18	0	-13	46	-56	4	-75	0.7	-13	-0.2

Source: PubChem BioAssay (several laboratories)
